Screens as filed in PubChem.
Mtb hypoxia rep – Mtb hypoxia fluorescent reporter inhibition; fluorescence inhibition, % (concentration not given with the values); M. tuberculosis hypoxia-regulated fluorescent reporter, fluorescence; hit rate 0.1% among 300,000;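 active means 35 to 45% if threefold the growth effect, above 45% if 1.5-fold the growth effect; inactive means the rest, general growth blockers included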;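 further: wells of about 50 µL received 100 nL stock; 0% = vehicle wells and 100% = reference inhibitor wells; whole bacteria with a GFP reporter of the hypoxia response; strong numbers were not always called active; many hits fall short of the cut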
RN4220 kill – kills Staphylococcus aureus RN4220 | S. aureus RN4220 growth, OD600, 16 h | inhibition, % (no concentration beside the values) | hit rate 0.33% among 330,000 | AID 1259311;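 active means z-score of -3 or lower and OD600 up to 0.18 on both plates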;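 further: plate controls were untreated cells for no effect and reference antibiotic for full effect; stock transfer was 100 nL into about 80 µL; one replicate is shown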
ugtP null kill – compounds lethal to S. aureus RN4220 ugtP deletion mutant; OD600 growth, 16 h; some inactives read as strong as hits; AID 1259309; hit rate 0.54% among 330,000; growth inhibition, % (concentration not given with the values);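 active means z-score under -3 and OD600 up to 0.15 on both plates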;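 further: plate controls were untreated wells for no effect and antibiotic for full effect; wells of about 80 µL received 100 nL stock; the first replicate is given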
BJeLR lethal – BJeLR cell viability loss; BJeLR (HRASV12) viability, CellTiter-Glo ATP luminescence, 48 h; reference of the scale not given here; inhibition, % (concentration not given with the values); hit rate 0.17% among 300,000;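 active means replicate mean above 50%; inconclusive means above 50% but judged a plate artefact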;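 further: 50 nL library stock added to about 25 µL; numbers are from one replicate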
PrP UTR inh – suppresses PrP 5' UTR mRNA reporter expression | cell-based PrP 5' UTR mRNA reporter, plate reader | inhibition, % (test concentration not listed) | AID 488862 | hit rate 0.35% among 340,000;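 active means every replicate at 50% or more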;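 further: 0 = median of the neutral control wells; tested in H4 reporter cells; numbers are from one replicate; inactives centre near -14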
Bead autofluor – counter-screen for toxin protease inhibitors: compound fluorescence. compound autofluorescence counterscreen, microsphere flow cytometry; hits give high values. fluorescence intensity (concentration not given with the values). hit rate 3.1% among 360,000. AID 624483;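 active means at least 3 SD above the mean of all compounds, about 16000 in these data; inconclusive means too few beads counted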;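 further: 100 nL of 1 mM stock went into each well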
Mtb hypoxia rep growth – also measured in Mtb hypoxia rep; calls as there; growth inhibition, %; measured here: M. tuberculosis growth (absorbance);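 0% = vehicle and 100% = reference antibiotic; read after six days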
An asterisk follows results filed as active; ? = inconclusive; . = not tested or not shown; & = joins results of further samples.

No.	SMILES	Mtb hypoxia rep	Mtb hypoxia rep growth	RN4220 kill	ugtP null kill	BJeLR lethal	PrP UTR inh	Bead autofluor
1	COc1ccc(C(=O)NNC(=O)c2cc3ccccc3cc2O)cc1	11	-1	13	-7	-9	-23	3483
2	O=C(CSc1nnnn1-c1ccccc1)NC(=O)Cc1ccccc1	3	4	1.9	2	.	-9	4042
3	CCOC(=O)C(CC)Sc1nnc2c3cc(C)ccc3n(C)c2n1 (stereo not given)	2	10	3.8	8	-4	-14	3990
4	CC1(CCC(=O)N2CCCC(N3CCN(c4cccc(C(F)(F)F)c4)CC3)C2)CC1 (stereo not given)	0	8	0.2	-4	9	-12	5604
5	CCO[C@@H]1OC(C(=O)NC2CC2)=C[C@H](c2csc3ccccc23)[C@H]1CCCO	12	8	-12	-4	3	-10	3874
6	COc1ccc(N2CN=C3SCC(=O)N3C2)cc1	.	.	3.7	6	-1	-8	4335
7	COC(=O)C1=C(C)NC(C)=C(C(=O)OC2CCCN(Cc3ccccc3)C2)C1c1cccc([N+](=O)[O-])c1 (stereo not given)	3	7	-16	10	.	.	.
8	CC(=O)N(OCc1ccc(OC(C)C)c(Cl)c1)C(C)=O	12	-1	4.4	-1	1	-4	4418
9	CC1(C)Cc2ccccc2-c2nnc(-c3ccco3)n21	-1	1	-3.9	1	-8	-5	4219
10	CC1CCN(C(=O)CCCl)c2ccccc21 (stereo not given)	6	8	2.5	1	.	-13	3813
11	COc1ccc(C(O)(CCN2CCOCC2)c2ccccc2)cc1 (stereo not given)	10	6	5.0	5	3	-18	3720
12	Cc1cc(C2=CC(=O)CC(c3ccc4c(c3)OCO4)C2)ccc1F (stereo not given)	10	10	2.3	12	.	.	.
13	CC1CCN(C(=O)CC#N)CC1	10	0	2.3	8	-12	-14	5970
14	Cn1cccc1Cc1nnc(SCC(=O)Nc2ccc3c(c2)OCCO3)n1-c1ccc(F)cc1	.	.	1.0	4	-1	-15	5619
15	Cc1cc(NC(=O)CCCSc2nc(-c3ccco3)cc(C(F)(F)F)n2)no1	.	.	0.1	-2	-6	-3	2733
16	O=C(CN1C(=O)CSc2ccccc21)N1CCc2ccccc21	5	8	4.9	1	-3	-19	11441
17	COc1ccc(NC(=O)c2cc(=O)[nH]c(=O)[nH]2)cc1S(=O)(=O)Nc1ccccc1Cl	10	7	0.7	2	-8	-17	3356
18	COc1cc(OC)cc(-c2c(-c3cccs3)c3cc(-c4ccc(OCc5ccccc5)cc4)ccc3n2C)c1	9	7	6.5	-1	.	-7	2947
19	OCCN(CCO)c1cc2c3ccccc3ccc2c2ccccc12	3	11	-12	-14	.	-21	4020
20	O=C(NN=Cc1ccc(OCC(=O)N2CCCCC2)cc1)c1ccccc1	7	2	0.4	5	.	.	.
21	CCOc1ccc(OCCC(=O)OCC(=O)NC(C)c2ccccc2)cc1 (stereo not given)	-2	-1	4.3	13	-2	-23	5369
22	CN(CC(=O)NNC(=O)CNC(=O)c1ccccc1F)S(=O)(=O)c1ccc(Cl)cc1	-1	2	-0.1	-1	.	-10	4247
23	CC(C)C(=NNC(=O)Nc1ccccc1)c1ccccc1	4	7	22	-7	.	.	.
24	O=C(N/N=C/c1ccccc1[N+](=O)[O-])c1ccc2nc[nH]c2c1	.	.	.	.	3	-30	4316
25	CNS(=O)(=O)c1cccc(C(=O)OCC(=O)c2cc(C)n(CC3CCCO3)c2C)c1 (stereo not given)	-5	-10	4.2	7	.	-16	4199

Ordered by length of the SMILES (smallest number first): some entries from above
No.	SMILES	Mtb hypoxia rep	Mtb hypoxia rep growth	RN4220 kill	ugtP null kill	BJeLR lethal	PrP UTR inh	Bead autofluor
11	COc1ccc(C(O)(CCN2CCOCC2)c2ccccc2)cc1 (stereo not given)	10	6	5.0	5	3	-18	3720
16	O=C(CN1C(=O)CSc2ccccc21)N1CCc2ccccc21	5	8	4.9	1	-3	-19	11441
18	COc1cc(OC)cc(-c2c(-c3cccs3)c3cc(-c4ccc(OCc5ccccc5)cc4)ccc3n2C)c1	9	7	6.5	-1	.	-7	2947

(listing goes on)
No.	SMILES	Mtb hypoxia rep	Mtb hypoxia rep growth	RN4220 kill	ugtP null kill	BJeLR lethal	PrP UTR inh	Bead autofluor
26	CC(Oc1ccccc1)C(=O)N1CCN=C1SCc1cccc(F)c1 (stereo not given)	13	14	1.3	-3	-4	-6	4450
27	O=C(CCCOc1ccccc1)NCCc1nc2ccccc2[nH]1	8	1	5.8	-4	-17	-18	4091
28	O=C(CN1C(=O)c2ccc(Br)cc2C1=O)NCC1CCCO1 (stereo not given)	4	5	5.7	9	3	-5	3978
29	O=C(NCCS(=O)(=O)N1CCN(c2ccccc2F)CC1)c1ccc(Cl)cc1	1	-2	8.0	17	1	-9	.
30	O=c1c2c3c(sc2nc2n1CCCCC2)CCCCC3	-3	6	1.5	35	-1	-73	4075
31	CCCCc1nnc(NC(=O)CN2C(=O)NC3(CCCCC3)C2=O)s1	9	-1	4.0	12	-6	-11	6212
32	CN(C)C(=O)N1CCC(C(=O)NCc2ccccc2Cl)CC1	-4	-2	-2.8	-6	-5	-14	12157
33	CC1CCCCN1S(=O)(=O)c1ccc(N(C(=O)c2cnccn2)C(C(=O)NC2CCCC2)c2cccs2)cc1 (stereo not given)	-42	3	-0.8	-7	-10	-51	2573
34	CCn1c(SCC(=O)N/N=C/C=C\c2ccco2)nc2ccccc21	.	.	.	.	-2	-13	2474
35	O=C(c1ccc(Cl)cc1)C1CCCN(C2CCSCC2)C1 (stereo not given)	6	5	3.6	14	0	-15	6148
36	O=C(COC(=O)C1CC(=O)N(Cc2ccccc2)C1)c1ccc(Br)cc1 (stereo not given)	1	4	6.9	-2	-15	-6	6811
37	O=C(NN=Cc1ccco1)c1cc(-c2cccc(Br)c2)nc2ccccc12	9	7	-6.8	5	.	.	.
38	CCN1CCN(CC(=O)Nc2ccc(C(C)=O)cc2)CC1	1	8	2.5	10	-1	-23	3806
39	CC1CC(C)CN(C(=O)CSCC(=O)Nc2nc(-c3cccs3)cs2)C1 (stereo not given)	-12	3	-13	-4	-1	-10	5731
40	CN(C)c1ccc(C(=O)C(=O)c2ccccc2)cc1	12	5	4.7	1	-8	-27	3036
41	O=C1c2ccccc2C(=O)N1CCC1=CCCCC1	.	.	8.2	3	2	-57	4834
42	O=C(O)c1ccccc1C(=O)c1ccc2c(c1)N(Cc1ccc(Cl)c(Cl)c1)C(=O)CO2	-6	2	3.7	-10	4	-6	4802
43	CC(=O)c1ccc(OC(C)C)c(CC(C(N)=O)C(N)=O)c1	3	8	2.0	1	-1	-5	4270
44	O=[N+]([O-])c1ccc(Sc2n[nH]c(-c3ccc(Cl)cc3Cl)n2)nc1	10	8	8.7	-2	3	-18	3686
45	Cc1csc(SCC(=O)NC(=O)NCc2ccccc2)n1	18	8	1.2	1	-3	-8	3736
46	NC(=S)N/N=C/c1ccc(Br)o1	.	.	.	.	5	-27	4983
47	CN(C)S(=O)(=O)NCc1ccc2c(c1)OCO2	9	8	5.9	-12	2	-18	10624
48	NC(=O)C1CCN(C(=O)CSc2nc3ccccc3o2)CC1	8	8	10	2	-10	-8	3591
49	O=C(CSc1nnc(NC(=O)c2c(F)cccc2F)s1)Nc1ccccc1F	6	1	-2.9	9	-5	-20	4075
50	Cc1ccc(N/C=C/C(=O)c2sc(-c3ccccc3)nc2C)cc1	.	.	1.3	9	-7	-26	2766
51	Cc1onc(-c2ccccc2)c1C(=O)NN=Cc1ccc([N+](=O)[O-])c(O)c1	6	12	20	2	.	.	.
52	O=C(CN1C2=NCCN2c2ccccc21)c1ccc(Br)cc1	.	.	3.6	-8	-3	-17	3987
53	COc1ccc(C2CC(c3cccc(OC)c3OC)n3nnnc3N2)cc1 (stereo not given)	3	8	8.1	-1	2	-9	5270
54	O=C(COc1ccc(Cl)cc1)c1ccc(O)cc1O	-5	-4	7.3	-3	-11	-19	4786
55	COC(=O)C1(S(=O)(=O)c2ccc(C)cc2)CCOCC1	-9	-10	-1.5	-1	9	-9	7019
56	O=C(C=Cc1ccccc1)NC(=Cc1ccccc1)C(=O)Nc1cccc(C(=O)O)c1	5	12	2.0	-6	.	.	.
57	O=C(C1CCC(CNS(=O)(=O)c2cccs2)CC1)N1CCN(c2ccc(Cl)cc2)CC1 (stereo not given)	-9	-7	1.1	-8	-12	-2	5188
58	CC(=O)c1cc2c(cc1NC(=O)CCNC(=O)c1ccccc1Cl)OCO2	.	.	7.9	-1	-4	-7	2478
59	O=C(COC(=O)/C=C/c1ccc(F)cc1)NCc1cccs1	5	9	1.2	3	.	-26	.
60	CN(Cc1nccn1C)C(=O)c1cc(COc2cccc(C(F)(F)F)c2)on1	11	10	5.0	1	2	-19	5123
61	Cc1nonc1OCCCNc1ccc([N+](=O)[O-])cc1Cl	1	4	4.1	-8	4	-23	8992
62	CC(=O)c1c[nH]c(C(=O)NC2CCCCCC2)c1	2	3	1.6	4	6	-21	5725
63	C=C(C)c1cccc(C(C)(C)NC(=O)N2CCC(C(N)=O)CC2)c1	-5	6	-0.8	-1	-30	-17	4167
64	Cc1ccc(CC(NC(=O)C2CCCCC2)C(=O)O)cc1 (stereo not given)	-3	1	6.1	13	.	-18	2937
65	CSCCC(NC(=O)c1ccccc1)C(=O)OCC(=O)N(C)CCC#N (stereo not given)	14	2	11	6	0	0	3276
66	O=C(NCCC1CCCCN1S(=O)(=O)c1ccc(F)cc1)C(=O)NCc1ccccn1 (stereo not given)	9	2	2.7	9	-10	-1	?
67	O=C(C=Cc1cccc(Cl)c1)OCc1cn2cc(Cl)ccc2n1	8	4	7.0	-24	.	.	.
68	Cc1cc(C(=O)NC(C)c2ccncc2)cs1 (stereo not given)	-1	1	5.4	10	-1	-7	7751
69	O=C(Cc1ccccc1[N+](=O)[O-])NNC(=O)c1ccncc1	3	7	1.2	0	.	0	4181
70	CCc1nnc(NC(=O)CC(=O)Nc2ccccc2C(=O)O)s1	10	11	1.6	7	1	-19	7810
71	CN(C)c1cccc2c(/C=N/O)ccc(N(C)C)c12	.	.	.	.	9	-31	4745
72	O=C(COC(=O)CCC1CCCC1)Nc1ccc(F)cc1	13	-3	5.1	4	.	-11	3873
73	CCCN(CC(=O)Nc1ccccc1C)C(=O)COc1c(Cl)cccc1Cl	.	.	.	.	-4	-17	6293
74	CC(CCc1ccccc1)NC(=O)COC(=O)c1cccnc1Cl (stereo not given)	7	13	-2.6	-2	.	-21	3895
75	CCCC(CCC)C(=O)O	2&-5	4&4	4.0&4.1	2&-3	-15	55&-26	5205&5870

(next part)
No.	SMILES	Mtb hypoxia rep	Mtb hypoxia rep growth	RN4220 kill	ugtP null kill	BJeLR lethal	PrP UTR inh	Bead autofluor
76	O=C1CCN(CCc2ccccc2)CCN1C(CSc1ccccc1)c1ccccc1 (stereo not given)	-4	-1	3.5	1	.	.	.
77	O=C(Nc1ccccc1)c1cc([N+](=O)[O-])ccc1NCc1cccnc1	2	0	8.4	-1	5	2	2104
78	Cc1cc(C)c(S(=O)(=O)Nc2ccnc(-c3cccnc3)n2)c(C)c1	-7	-9	5.8	-2	0	-16	4262
79	Cc1cc(C(=O)NNC(=S)NCc2ccco2)nn1C	.	.	.	.	5	-31	4892
80	O=C(COC(=O)c1cc[n+]([O-])cc1)Nc1ccc(SC(F)F)cc1	1	-6	-0.3	-3	-1	8	4831
81	COC(=O)CCCC(=O)N1CCC(n2nccc2NC(=O)CCOc2ccccc2)CC1	9	-7	1.6	-2	5	-19	5385
82	COc1ccc(C=NN=C2SC(CC(=O)O)C(=O)N2c2ccc(O)cc2)cc1OC (stereo not given)	20	3	1.7	0	.	.	.
83	O=C(CSc1nnc(CNc2ccc(F)cc2)o1)N1CCCc2ccccc21	5	5	4.2	-3	3	-22	3407
84	CC(C)(O)C(=O)Nc1ccc([N+](=O)[O-])c(C(F)(F)F)c1	.	.	22	-4	.	-8	5487
85	Cc1ccc(CNc2nc(N)c([N+](=O)[O-])c(Nc3cccc(F)c3)n2)cc1	15	4	3.6	-13	2	-11	5882
86	O=C(COC(=O)c1cc(S(=O)(=O)N2CCOCC2)ccc1F)Nc1ccc(Cl)cn1	11	2	1.4	1	.	-26	4318
87	Cc1ccc(NC(=O)c2ccc(NCCCN3CCC(C)CC3)c([N+](=O)[O-])c2)c(C)c1	13	11	-1.8	5	17	-4	3758
88	CCOC(=O)c1c(-c2ccccc2)oc2ccc(O)c(CN3CCOCC3)c12	13	17	-2.6	18	4	-10	3328
89	N#C/C(=N\Nc1c(Cl)cccc1Cl)C(=O)NN	.	.	.	.	-2	8	9243
90	COc1cc(NC(=O)COc2cc(C)cc3oc(=O)c(C)c(C)c23)cc(OC)c1OC	-2	-2	0.2	-6	1	-3	4436
